Bioassay records (PubChem)
PK Bst: pyruvate kinase (B. stearothermophilus) modulation; Potency, µM; partly purified Bacillus stearothermophilus pyruvate kinase, luminescence ATP production; ribose 5-phosphate activator present at AC10; 1.2% of 51,000 active; in the data active means potency below about 11 µM; inconclusive means mostly about 12 µM to 25 µM; inactive means weaker than that;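 the screen sought inhibitors and activators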;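 note: potency is the fitted concentration of half-maximal effect; scaled between full activation by ribose 5 phosphate and full inhibition by luteolin; about four in five hits inhibit and the cells do not say which; series up to 57 µM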
TsaE inh: displaces an ADP probe from E. coli YjeE (TsaE) | Potency, µM | 0.05% of 71,000 active | purified YjeE, fluorescence polarisation of a bound ADP probe | AID 605 | P0AF67; active = well fitted falling curve; inconclusive = weaker or top-dose-only fall, or a rising curve; inactive = flat or poorly fitted curve;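 note: top concentration of the series not given in the record; excess ADP was the control for the full effect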
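Fluorescence polarization of a BODIPY Texas Red–ADP probe (2 uM) bound to purified YjeE (10 uM) was read after 15 min room-temperature incubation with compounds. Loss of polarization marks inhibitors; ADP serves as titrated control.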
Active calls of the source: *; i = inactive; ? = inconclusive; nt = no result given. The list is partial. The share of hits here may be higher or lower than overall.

SMILES	PK Bst	TsaE inh
O=C(COc1ccc(S(=O)(=O)NC2CCCC2)cc1)N1CCCCCC1	>57	i
CCOC(=O)Cn1cc(C(=O)c2ccco2)c2ccccc21	nt	i
Cc1ccc2nc(NC(=O)CCNS(=O)(=O)c3cccs3)sc2c1	>57	i
OC[C@@H]1O[C@H](n2cnc3c(/C=C(\O)c4ccccc4)ncnc32)[C@H](O)[C@@H]1O	nt	i
Cc1ccc(-c2nn(C)c(=O)c3ccccc23)cc1CN1CCOCC1	>26	nt
CCOc1ccc(N2C(=O)c3cccnc3C2=O)cc1	nt	i
CC1=CCC2C(=O)N(c3nc(C)cc(C)n3)C(=O)C2C1 (stereo not given)	>57	i
COc1cccc(C(=O)N2CCN(C3CCC(c4ccccc4)CC3)CC2)c1 (stereo not given)	>57	i
CN1CCN(c2oc(-c3cccs3)nc2S(=O)(=O)c2ccccc2)CC1	>57	i
O=C(c1ccc(NS(=O)(=O)c2ccccc2)cc1)N1CCN(Cc2ccc3c(c2)OCO3)CC1	>57	i
CCOC(=O)c1sc(NC(=O)CSc2ncn(-c3ccccc3)n2)nc1C	>57	i
N#Cc1ccc(NC(=O)CN2C(=O)NC(Cc3ccccc3)C2=O)cc1 (stereo not given)	>57	i
O=C(O)c1cc(-c2ccc3cc4c(cc3c2)OCO4)nc2ccccc12	nt	i
CCSc1nnc(NC(=O)c2ccccn2)s1	nt	i
O=S(=O)(c1cccs1)N1CCN(CC(O)COc2cc(Cl)ccc2Cl)CC1 (stereo not given)	>57	i
FC(F)(F)c1ccccc1-c1cncnc1NCc1cccs1	nt	i
O=C(NCC12CC3CC(CC(C3)C1)C2)c1cc2n(n1)C(C(F)(F)F)CC(c1ccco1)N2 (stereo not given)	>57	i
CCOC(=O)N1CCN(C(=O)CSCC(=O)Nc2nc(-c3ccc(OC)cc3)cs2)CC1	nt	i
Cc1ncc(CN=Cc2ccc(Cl)cc2)c(N)n1	nt	i
COC(=O)c1ccc(NC(=O)C2CCCO2)cc1 (stereo not given)	>57	i
C[C@@H]1CCc2cc(F)cc3c(=O)c(C(=O)O)cn1c23	nt	i
CCOc1cc(C(=O)OCC(=O)NCc2ccco2)cc(OCC)c1OCC	>57	i
COc1ccc2[nH]cc(C(=O)CN(C)CCc3ccc(OC)c(OC)c3)c2c1	>26	nt
O=C(c1ccncc1)N1CCC2(CCCN(Cc3nccs3)C2)CC1	nt	i
C=CCNc1nc(N2CCOCC2)c(C#N)c2c1CN(C)CC2	>26	nt
SMILES	PK Bst	TsaE inh
CC(C)c1cc(CN(C)C)c(O)c(C(C)(C)C)c1	nt	i
CCC(C)c1ccc2oc(-c3ccc(NC(=O)c4ncn[nH]4)cc3)nc2c1 (stereo not given)	>57	i
CCN1C(=O)c2cccc3c(NC(=O)c4ccc(S(=O)(=O)N5CCOCC5)cc4)ccc1c23	nt	i
CCOc1cc(-c2nc3cc(C)ccn3c2NCC2CCCO2)ccc1O (stereo not given)	>57	i
COc1ccc(OC)c2c(C)cc(NCCN3CCOCC3)nc12	nt	i
Cc1ccc(/C(O)=C2\C(=O)C(=O)N(CCN(C)C)C2c2ccccc2F)cc1 (stereo not given)	nt	i
N[C@H](CO)C(=O)NCC(=O)O	nt	i
O=C(Nc1ccc(F)cc1F)N1CCCCC1c1cccnc1 (stereo not given)	nt	i
COC(=O)[C@@]1(Cc2ccc(OC)cc2)[C@H]2c3cc(C(=O)N(C)C)n(Cc4cc(C)n(C)n4)c3C[C@H]2CN1C(=O)c1ccccc1	nt	i
O=C(Nc1ccc(N2CCN(C(=O)c3ccco3)CC2)c(Cl)c1)c1cccs1	>57	i
O=C(Nc1ccc(Br)c(Cl)c1)c1ccco1	nt	i
O=c1c2ccccc2n(Cc2ccc(Cl)cc2)c(=O)n1Cc1ccco1	>57	i
CCOCCCNC(=O)c1[nH]c(C)c(C(C)=O)c1C	>57	i
N#Cc1c(N)nc2c(c1-c1ccncc1)CCCCCC2	>57	i
COc1ccc(-c2c(C)n([O-])c3c([n+]2=O)CCC3)cc1OC	>57	i
CCOc1ccc(C(=O)OCn2nnc3ccccc3c2=O)cc1OC	>57	i
COc1ccc(-c2nc(C#N)c(N3CCN(c4ccccc4)CC3)o2)cc1	nt	i
Cc1cc(C)n(C(=O)CNc2cccc(Cl)c2C)n1	>57	i
Cc1cc(NC(=O)C2CC(=O)OC2c2ccccc2)no1 (stereo not given)	>57	i
O=C(Cc1c(C(=O)O)[nH]c2ccccc12)NCCN1CCN(c2ccccc2F)CC1	>57	i
O=C(CSc1nnc2sc3ccccc3n12)N1CCN(c2ccccc2)CC1	>57	i
CCN(CC)c1nc(C)c2c(c1C#N)CC(C)(C)OC2	>26	nt
CC(C)n1c(/C=C\[C@@H](O)C[C@@H](O)CC(=O)O)c(-c2ccc(F)cc2)c2ccccc21	nt	i
Cc1ccc(CN(C)CCc2ccccn2)cc1	>57	i
O=C(O)CSC(NC(=O)c1cccnc1)(C(F)(F)F)C(F)(F)F	>57	i

Next section, overlapping the part above by 3 compounds.
SMILES	PK Bst	TsaE inh
CC(C)n1c(/C=C\[C@@H](O)C[C@@H](O)CC(=O)O)c(-c2ccc(F)cc2)c2ccccc21	nt	i
Cc1ccc(CN(C)CCc2ccccn2)cc1	>57	i
O=C(O)CSC(NC(=O)c1cccnc1)(C(F)(F)F)C(F)(F)F	>57	i
Cc1nc2cnc(N3CCN(C)CC3)nc2n(C[C@H]2CCCO2)c1=O	nt	i
Cc1ccc(Nc2nc(N)nc(CN3CCN(Cc4ccc5c(c4)OCO5)CC3)n2)c(C)c1	>57	i
O=C(Oc1ccccc1)N1CCC2(CCCN(c3ccc(-c4ccccc4)cc3)C2)CC1	nt	i
O=C(CSc1nnc(-c2ccccc2Br)o1)N1CCc2ccccc2C1	?	i
Cc1ccc(NC(=O)Cn2cccc2)c(Br)c1	>57	i
CCOC(=O)c1nn(-c2cc(C(=O)OC)cc(C(=O)OC)c2)cc1O	>57	i
Cn1c(=O)oc2cc(S(=O)(=O)NCCC(=O)NC3CCCC3)ccc21	>57	i
CCOC(=O)N1CCN(C(=O)c2ccc(NS(C)(=O)=O)cc2)CC1	>57	i
COC(=O)C1C(=O)C2=C(CC1C)NC(C)=C(C(=O)OCc1ccc(OC)cc1)C2c1ccc(C)o1 (stereo not given)	>57	i
COc1ccc(OCc2nnc3n2N=C(c2ccc(OC)cc2)CS3)cc1	nt	i
CCc1nc2c(sc3nc(N4CCOCC4)c4c(c32)CC(C)(C)OC4)c(=O)o1	>26	nt
COC(=O)[C@@H]1[C@@H]2C[C@H]3c4[nH]c5cc(OC)ccc5c4CCN3C[C@@H]2C[C@H](OC(=O)c2cc(OC)c(OC)c(OC)c2)[C@H]1OC	nt	i
Cc1c(C)c2ccc(OCC(=O)N(C)C)c(C)c2oc1=O	>57	i
CCOC(=O)C1CCN(c2c(NC3CCCCCCC3)c(=O)c2=O)CC1	nt	i
C=CCc1cc(C(=O)N2CCCCC2)ccc1O	>57	i
COc1ccc(OCc2nnc(SCC(N)=O)n2-c2ccccc2OC)cc1	>57	i
CCOC(=O)N1CCN(C(=O)c2sc3nc(-c4ccc(F)cc4)cn3c2C)CC1	>57	i
COc1ccc(-c2nc(C#N)c(NCC3CCCO3)o2)cc1OC (stereo not given)	nt	i
COc1cc(-c2nnc(SCC(=O)c3ccc(C)cc3)o2)cc(OC)c1OC	>57	i
COc1cccc(C2CC(c3ccccc3Cl)n3nc(N)nc3N2)c1 (stereo not given)	>26	nt
CCC(NC(=O)Nc1nccs1)(C(F)(F)F)C(F)(F)F	>26	nt
CC(=O)c1ccc(OCC(O)CN2CCN(CCO)CC2)cc1 (stereo not given)	nt	i
CC(C)CCNC(=O)NC(=O)COc1ncnc2sccc12	>57	i
CN(C)C(=O)C1(c2ccccc2)CCN(S(=O)(=O)c2ccccc2)CC1	>57	i
COc1cc(CN2CCC(C(=O)N3CCN(c4ccccc4F)CC3)CC2)ccc1O	>57	i

Gathered by group, those above containing a furan ring, fused or not
SMILES	PK Bst	TsaE inh
CCOC(=O)Cn1cc(C(=O)c2ccco2)c2ccccc21	nt	i
O=C(NCC12CC3CC(CC(C3)C1)C2)c1cc2n(n1)C(C(F)(F)F)CC(c1ccco1)N2 (stereo not given)	>57	i
CCOc1cc(C(=O)OCC(=O)NCc2ccco2)cc(OCC)c1OCC	>57	i
O=C(Nc1ccc(N2CCN(C(=O)c3ccco3)CC2)c(Cl)c1)c1cccs1	>57	i
O=C(Nc1ccc(Br)c(Cl)c1)c1ccco1	nt	i
O=c1c2ccccc2n(Cc2ccc(Cl)cc2)c(=O)n1Cc1ccco1	>57	i
COC(=O)C1C(=O)C2=C(CC1C)NC(C)=C(C(=O)OCc1ccc(OC)cc1)C2c1ccc(C)o1 (stereo not given)	>57	i

(cont.)
SMILES	PK Bst	TsaE inh
Cc1cccc(N(Cc2ccccc2F)S(C)(=O)=O)c1	>57	i
CS(=O)(=O)Nc1cccc(-c2cc(NCc3cccs3)ncn2)c1	nt	i
COc1ccc(OC)c(C2CC(=O)C3=C(C2)NC(=O)CC3c2ccc(O)c(OC)c2)c1 (stereo not given)	>57	i
Cn1c(=O)c2c(nc(Oc3ccc4c(c3)OCO4)n2Cc2ccc(F)cc2)n(C)c1=O	>26	nt
COc1cccc(-c2nnc(SCC(=O)Nc3ccc(S(N)(=O)=O)cc3)n2C)c1	>57	i
O=C(c1ccco1)N1CCN=C1SCc1ccc(F)cc1	nt	i
COC(=O)C(CC(C)C)NC(=O)c1ccc(F)cc1 (stereo not given)	nt	i
COc1ccc(NC2=Nc3ccccc3CC2)cc1	>57	i
O=C(C1CCN(S(=O)(=O)c2cccc3cccnc23)CC1)N1CCN(Cc2ccccc2)CC1	nt	i
CCCCNC(=O)NS(=O)(=O)c1ccc(C(=O)OC)o1	>57	i
CN(C)S(=O)(=O)Nc1ccc2c(c1)Cc1ccccc1-2	nt	i
Cn1c(=O)c2[nH]c(CS(=O)(=O)Cc3nc4c([nH]3)c(=O)n(C)c(=O)n4C)nc2n(C)c1=O	nt	i
COCCCN1C(=O)c2[nH]nc(-c3ccccc3O)c2C1c1ccc(Cl)cc1 (stereo not given)	>57	i
CCOCCCNC(=O)C(c1ccc(Cl)cc1)N1CCN(c2ccccc2)CC1 (stereo not given)	nt	i
CC(C)Oc1ccc(/C(O)=C2/C(=O)C(=O)N(CCCN3CCOCC3)C2c2ccncc2)cc1 (stereo not given)	nt	i
NC(=O)CSc1nnc(CNc2cccc(Cl)c2)n1CCc1ccccc1	>57	i
CCCCNc1nc(C)nc2c1nc(-c1ccccc1)n2CCN1CCCCC1	nt	i
Cc1ccccc1-n1nc(C)c2cc(C(=O)N3CCN(S(=O)(=O)c4ccccc4)CC3)sc21	>57	i
COc1ccccc1S(=O)(=O)Cc1ccc(C(=O)N2CCCC2)o1	nt	i
CCC(=O)c1ccc(N2CCN(C(=O)c3ccc(Br)cc3)CC2)c(F)c1	>57	i
O=C(O)CN(CCN(CC(=O)O)CC(=O)O)CCN(CC(=O)O)CC(=O)O	nt	i
O=C(Cn1cnc2c(nnn2-c2ccc(F)cc2)c1=O)NCc1ccco1	>57	i
N#Cc1cc2c(=O)n3ccccc3nc2n(Cc2cccnc2)c1=N	>57	i
Cc1ccc(NC(=O)Nc2ccc(F)cc2)nc1	4.7*	i
COc1ccc(OCC(=O)Nc2ccc(N3CCOCC3)c(Cl)c2)cc1	>57	i
SMILES	PK Bst	TsaE inh
O=C(O)CSCCc1ccccn1	nt	i
O=C(Nc1ccc2c(c1)nc1n2CCOC1)c1ccco1	?	i
O=C(COC(=O)c1c2c(nc3ccccc13)CCCC2)Nc1ccc2c(c1)OCO2	nt	i
COc1ccc(-c2cc(C(F)(F)F)nc(N3CCN(c4ccccc4)CC3)n2)cc1OC	>57	i
CC(c1cccnc1)N(C(=O)Nc1ccccc1)C1CCCCC1 (stereo not given)	nt	i
COc1ccc2[nH]c(=O)c(C(c3nnnn3C3CCCC3)N(C)C3CCCCC3)cc2c1 (stereo not given)	>57	i
CCOC(=O)c1ccc(NC(=O)Oc2ccccc2)cc1	nt	i
CCN(CC)c1nc(Nc2ccc(Cl)cc2)nc(OCC#N)n1	nt	i
CC(=NCCN1CCNCC1)C1=C(O)CC(C)(C)CC1=O	nt	i
CCOC(=O)C(C)Sc1nnc2n1C(C)(C)Cc1ccccc1-2 (stereo not given)	>57	i
COc1cc(Cl)c(C)cc1NC(=O)COc1cc(C)nc(C(C)C)n1	>57	i
N#CCSc1nc2ccccc2c(=O)n1CCC(=O)NCCc1ccccc1	>57	i
COc1cc(NC(=O)c2cc3nc(C)cc(C)n3n2)c(OC)cc1Cl	nt	i
O=C(NCCc1ccccc1)c1cnn2c(C(F)F)cc(C3CC3)nc12	>57	i
CCOc1ccc(N(CC(=O)NC2CCCC2)S(=O)(=O)c2c(C)noc2C)cc1	nt	i
O=C(Cc1c(F)cccc1Cl)N1CCN(C(=O)c2ccco2)CC1	>57	i
Cn1c(Cn2c(=O)sc3ccccc32)nnc1SCC(=O)NCc1ccc(F)cc1	nt	i
C=CCc1ccccc1OCCCCN1CCCC1	nt	i
Cc1ccc(C(C)C)c(OCc2ccc(-c3nnco3)cc2)c1	>57	i
C=CCn1c(N)c(C(=O)OC(C)(C)C)c2nc3ccccc3nc21	>26	nt
c1ccc2c(c1)Cc1cc3cc4c(cc3nc1-2)OCO4	nt	i
Oc1c(C(c2ccccc2)N2CCCCC2)sc2ncnn12 (stereo not given)	nt	i
CC(=O)NCCNc1nc(-c2cccnc2)nc2ccccc12	nt	i
O=C(Nc1sc2c(c1C(=O)O)CCC2)c1cccs1	>57	i
O=c1oc2ccccc2c2c1ncn2-c1ccccc1	nt	i
CCOC(=O)Cc1cc(=O)n2[nH]c(C)c(-c3ccc(OC)cc3)c2n1	>57	i

Structures listed above printed as active in PK Bst.
SMILES	PK Bst	TsaE inh
Cc1ccc(NC(=O)Nc2ccc(F)cc2)nc1	4.7*	i
